MLL AF4-AF9 inh = inhibitors of AF4 peptide binding to AF9, primary screen, biochemical, AlphaScreen, biotin-AF4 peptide, FLAG-AF9, single point. actives 0.47% (n = 350,000). inhibition, % at 10 µM;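 active means every replicate reaching a set inhibition limit, whatever the replicate mean, cut at about 25% in these data; inconclusive means mean inhibition reaches that limit but some replicates miss it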;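 further: 0% = plate neutral control median and 100% = total signal loss; the record names both 10 and 1 µM as test concentration; the first replicate is given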
Target sequence (P42568 whole entry, looked up): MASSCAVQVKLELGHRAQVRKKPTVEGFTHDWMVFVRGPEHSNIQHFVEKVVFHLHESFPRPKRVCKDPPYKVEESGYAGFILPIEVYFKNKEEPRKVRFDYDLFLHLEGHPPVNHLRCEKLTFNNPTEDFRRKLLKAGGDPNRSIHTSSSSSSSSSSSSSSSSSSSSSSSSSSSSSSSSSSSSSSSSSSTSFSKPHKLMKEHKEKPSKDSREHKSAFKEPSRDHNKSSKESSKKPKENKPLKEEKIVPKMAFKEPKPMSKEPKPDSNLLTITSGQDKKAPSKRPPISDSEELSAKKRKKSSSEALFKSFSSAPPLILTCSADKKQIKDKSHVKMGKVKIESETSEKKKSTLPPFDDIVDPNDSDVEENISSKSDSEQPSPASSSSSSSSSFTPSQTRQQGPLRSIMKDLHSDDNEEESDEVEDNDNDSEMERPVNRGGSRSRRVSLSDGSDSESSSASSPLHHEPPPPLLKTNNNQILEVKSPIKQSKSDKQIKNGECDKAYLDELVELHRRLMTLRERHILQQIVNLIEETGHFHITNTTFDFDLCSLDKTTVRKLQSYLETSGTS
FGF22 binding = binders of human FGF22 protein, primary screen, FGF22 synaptogenesis inhibitor project, biophysical, thermal shift, single point | Fibroblast growth factor 22 (Homo sapiens), Q9HCT0 | recombinant FGF22 thermal shift, SYPRO orange fluorescence; percent of sucrose octasulfate shift, DMSO zero | calls only at 9.99 µM | actives 1.5% (n = 340,000);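 active means melting point raised past a set limit in the mean and every replicate; inconclusive means no clear call; three in four hits are not shown here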
Target sequence (Q9HCT0 whole entry, looked up): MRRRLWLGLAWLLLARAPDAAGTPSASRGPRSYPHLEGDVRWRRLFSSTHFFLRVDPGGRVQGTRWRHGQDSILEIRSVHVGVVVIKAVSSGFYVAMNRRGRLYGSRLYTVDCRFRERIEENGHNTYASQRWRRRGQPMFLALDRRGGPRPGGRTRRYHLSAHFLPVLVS
T cruzi repl = inhibitors of intracellular T. cruzi growth, primary screen, luminescence, NIH3T3 host cells; T. cruzi beta-gal in NIH3T3, 90 h; AID 1885, 2009; actives 1.4% (n = 300,000); inhibition, % (no concentration beside the values);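 active means mean inhibition across valid replicates above about 55%, limit read from the data; inconclusive means mean below that limit but half or more replicates reach it; inactive means mean below it, under half of replicates reach it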;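 further: signal also drops with host cell toxicity which is not excluded here; 0% = plate median of DMSO wells and 100% = zero luminescence signal; higher percent means less beta-gal luminescence so fewer parasites; stock transfer was 50 nL into about 50 µL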
E coli growth = E. coli growth inhibition, primary screen, OD600; Escherichia coli growth, 23 h; hits give low values; OD600 absorbance (no concentration beside the values); actives 0.21% (n = 330,000); AID 1053175, 2014;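 active means OD600 absorbance below the run mean of sample wells minus 3.6 SD, in any replicate, cut at about 0.56 in these data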;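 further: stock transfer was 300 nL into about 60 µL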
UCH37 DUB inh = inhibitors of human UCH37 deubiquitinase, primary screen, biochemical, Ub-AMC cleavage, fluorescence; Ubiquitin carboxyl-terminal hydrolase isozyme L5 (Homo sapiens), Q9Y5K5; purified proteasome/UCH37; inhibition, % (test concentration not listed); actives 0.33% (n = 330,000);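 active means mean of two replicates above 20%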;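 further: 0% = compound-free wells with enzyme and 100% = wells lacking proteasome; stock transfer was 100 nL into about 20 µL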
Target sequence (Q9Y5K5 whole entry, looked up): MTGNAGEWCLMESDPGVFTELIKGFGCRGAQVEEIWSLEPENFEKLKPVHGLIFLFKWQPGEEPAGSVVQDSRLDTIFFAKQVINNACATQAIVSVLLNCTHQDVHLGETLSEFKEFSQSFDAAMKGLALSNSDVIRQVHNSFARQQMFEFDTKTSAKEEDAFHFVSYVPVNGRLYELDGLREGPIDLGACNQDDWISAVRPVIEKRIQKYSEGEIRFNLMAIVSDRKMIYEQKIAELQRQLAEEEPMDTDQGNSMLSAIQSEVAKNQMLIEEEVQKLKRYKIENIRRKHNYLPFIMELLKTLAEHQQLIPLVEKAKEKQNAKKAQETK
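Test system – human UCH37 enzyme supplied as purified proteasome complex · Incubation – 30 min preincubation with enzyme, 25 min cleavage at room temperature · Detection – AMC fluorescence from Ub-AMC cleavage, excitation 355 nm, emission 460 nm · Benchmarks – no-proteasome wells (full inhibition) and compound-free wells (no inhibition)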
Ecoli rRNA inh = reduced GFP signal of wild-type E. coli, primary screen, bacterial rRNA inhibitor project, GFP/RFP fluorescence, OD600, single point; GFP signal change (wild-type ribosome), % (no concentration beside the values); E. coli WT GFP vs humanized-ribosome RFP mutants, 24 h; hits give low values; DMSO median 0, no signal -100; actives 1.6% (n = 350,000);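 active means significant combined selectivity score with lowered wild-type GFP, culture density cut under 30%, mutant RFP and density less affected; inactive means any of these conditions unmet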; further: one replicate is shown; some compounds called inactive have numbers as strong as hits
A1 inh = caspase 3/7 activation in MEF A1-2A-BIM cells, primary screen, A1 inhibitor project, cell-based, luminescence, HTS; Caspase-Glo 3/7 luminescence, 3 h; percent of clofoctol response, vehicle zero; caspase activation, % (concentration not given with the values); actives 0.066% (n = 330,000);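 active means over half of replicate activation scores above 10%, or exactly half above 10 with the replicate mean above 10; inconclusive means replicate mean below 10 yet half the replicates above 10; inactive means over half of replicates below 10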;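 further: wells of about 30 µL received 50 nL stock; many hits fall short of the cut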
Beta cell apopt = inhibitors of cytokine-induced beta cell apoptosis, primary screen, luminescence. INS-1E cytokine-induced death, ATP luminescence, 48 h; percent of positive-control rescue, neutral wells zero. protection from apoptosis, % (test concentration not listed). AID 435005, 2010. actives 0.8% (n = 300,000);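 active means all replicates at 75% or more, or half of them and the mean; inconclusive means half reach 75% but not the mean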;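 further: 0% = cytokine-treated negative control wells and 100% = positive control rescue; higher means more ATP so stronger rescue from cytokine killing; wells of about 40 µL received 100 nL stock; the first replicate is given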
Ecoli rRNA inh OD600 = further read-out of Ecoli rRNA inh, marked with its call; OD600 change, %; measured here: OD600 growth;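 optical density of the mix in the first replicate; 0 = DMSO median and -100 = no signal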
Ecoli rRNA inh RFP = recorded beside Ecoli rRNA inh, whose call it bears; RFP signal change, %; measured here: RFP humanized mutant strains;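 first replicate; 0 = DMSO median and -100 = no signal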
Active calls of the source: *; i = inactive; ? = inconclusive; nt = not tested or not shown; + = active, no number. Only part of the results is shown. The share of hits here may be higher or lower than overall.

SMILES	MLL AF4-AF9 inh	FGF22 binding	T cruzi repl	E coli growth	UCH37 DUB inh	Ecoli rRNA inh	Ecoli rRNA inh OD600	Ecoli rRNA inh RFP	A1 inh	Beta cell apopt
CC(C)n1c(O)c(N=NC(=O)CNC(=O)CCc2ccccc2)c2ccccc21	-0.9	i	8.9	0.689	2.5	-5.6	-8.1	-5.1	-0.5	-1.3
Cc1nn2c(-c3ccc(S(=O)(=O)N4CCN(C)CC4)o3)nnc2c2ccccc12	-2.8	i	16.2	0.653	-24.6	-6.8	6.1	-1.7	-0.6	11.7
O=C(CN1CCCCC1)Nc1c2c(nc3ccccc13)N(c1ccccc1)CC2	0.6	i	9.0	0.746	-125.1	18.4	14.8	-0.8	-0.2	-0.7
COCCNc1nc(CSc2ccccc2)nc2sc(C)c(C)c12	-8.4	i	18.5	0.692	3.4	-29.0	-36.8	0.4	-0.7	-1.6
Cc1cc(=O)c2cc(Br)ccc2n1CC(=O)NCc1ccccc1	-1.6	i	22.8	0.647	4.2	-6.8	-0.9	1.5	0.3	8.9
COc1ccc(Cl)cc1C(=O)NC(=S)Nc1cc(-c2nc3ccccc3[nH]2)ccc1C	nt	nt	nt	0.776	0.4	nt	nt	nt	1.8	7.0
CC(=O)c1cccc(N(CC(=O)NC2CCCCC2)C(=O)CNC(=O)c2cccs2)c1	0.7	i	-12.2	0.642	-1.1	-4.0	4.3	2.4	0.9	-4.4
C=CCn1c(COc2ccccc2)nnc1SCC(=O)NCC(=O)OCC	nt	nt	nt	0.782	5.8	nt	nt	nt	0.2	3.7
CCOC(=O)c1ccc(NC(=O)C2CCC(CNc3c(N4CCOCC4)c(=O)c3=O)CC2)cc1 (centres undefined)	3.2	i	-2.9	0.699	2.1	3.5	-1.8	-2.5	-0.4	-7.0
Cc1cc2oc(=O)sc2cc1NS(=O)(=O)c1ccccc1	0.3	i	6.6	0.702	1.0	-3.6	-5.9	2.9	1.3	-2.2
N#CC1(c2ccccc2)CCCN1C(=O)c1ccc(Br)o1 (centres undefined)	-6.5	i	6.3	0.664	-0.4	2.7	-1.1	-0.6	1.8	6.7
NC(=O)C1(N2CCCCC2)CCN(Cc2ccc(F)cc2)CC1	nt	nt	18.9	0.73	0.7	nt	nt	nt	0.3	1.8
Cc1cc(C)n2ncc(-c3cccc(Br)c3)c2n1	-17.3	i	-37.2	0.639	-11.0	-54.0	-71.6	-13.2	-0.6	-2.3
CCN(CC)S(=O)(=O)c1ccc(-c2nnco2)cc1	nt	nt	3.6	0.715	1.6	nt	nt	nt	0.1	-1.8
CC(=O)N1CCc2c(sc(NC(=O)c3ccc(S(=O)(=O)N(C)C)cc3)c2C#N)C1	5.5	i	-7.3	0.722	10.7	0.2	1.4	1.2	0.8	-5.3
C#CCOC(=O)Nc1ccc(OCC(F)(F)F)nc1	2.5	i	0.7	0.68	2.5	18.2	5.4	0.6	0.3	1.4
CNC(=O)CN(C)S(=O)(=O)c1ccc(OC)c(Cl)c1	nt	nt	-7.8	0.772	-1.6	nt	nt	nt	0.1	3.3
O=C(COC(=O)CC(c1ccccc1)c1ccccc1)Nc1c(F)cccc1F	nt	nt	-19.2	0.629	3.2	nt	nt	nt	0.7	-0.1
Cc1cccc(-c2nnc(N)s2)c1	nt	nt	-1.2	0.773	1.6	nt	nt	nt	0.4	-3.7
NS(=O)(=O)c1cccc(NC(=O)CN2CCCc3ccccc32)c1	-0.2	nt	-16.2	0.691	0.7	10.6	14.1	0.1	0.4	-5.3
Cc1cc(Cl)ccc1OCc1nc(-c2ccncc2)no1	-1.2	nt	74.8*	0.667	1.5	-21.0	-23.6	-4.8	-0.5	5.6
O=C(CN(Cc1ccco1)C(=O)c1ccc(Cl)cc1)Nc1c(Cl)cc(Cl)cc1Cl	nt	nt	8.7	0.678	2.3	nt	nt	nt	-0.1	10.2
N#CC1(Nc2ccc([N+](=O)[O-])cc2)CCCC1	1.6	i	nt	0.68	10.6	-6.6	1.3	1.9	nt	nt
CCCS(=O)(=O)N1CCC(C(=O)NC2CCCC(C)C2C)CC1 (centres undefined)	nt	nt	-2.7	0.772	-5.0	nt	nt	nt	-1.2	-7.5
Cc1ccc(S(=O)(=O)N2CCC(N3CCN(C)CC3)CC2)cc1Cl	3.7	i	18.8	0.618	1.8	5.2	5.1	-1.0	-0.5	-5.6

(cont.)
SMILES	MLL AF4-AF9 inh	FGF22 binding	T cruzi repl	E coli growth	UCH37 DUB inh	Ecoli rRNA inh	Ecoli rRNA inh OD600	Ecoli rRNA inh RFP	A1 inh	Beta cell apopt
O=C(c1ccccc1)N1CCSc2sccc2C1=O	-1.3	i	1.7	0.647	4.8	0.7	-9.2	-3.5	nt	nt
O=C(Nc1nc2ccc(F)cc2s1)c1ccc(N2CCCC2=O)cc1	-2.0	i	-12.9	0.638	-47.3	-4.6	-0.8	3.8	-0.6	-1.6
O=C(CNC(=O)c1sc2ccccc2c1Cl)NCc1ccccc1	-1.3	i	3.2	0.722	3.6	6.0	13.9	2.3	-0.5	0.0
COC(=O)CC1C(=O)NC2CCCCC2N1C(=O)CCl (centres undefined)	nt	i	-32.5	0.647	3.3	17.7	0.9	-0.7	-0.4	-3.2
Cc1ccccc1N1CCN(C2CCCN(C(=O)c3cc(CC(C)C)nn3C)C2)CC1 (centres undefined)	3.8	i	17.5	0.682	1.7	-6.2	-18.6	0.9	0.7	-9.3
CCCCC(CC)C(=O)NCCc1ccc(S(N)(=O)=O)cc1 (centres undefined)	nt	nt	-16.1	0.651	1.3	nt	nt	nt	nt	-1.3
COc1ccc(-c2cc(C(=O)Nc3cccc(S(=O)(=O)NCc4ccco4)c3)c3ccccc3n2)cc1OC	0.0	i	59.9*	nt	nt	-1.7	-6.9	9.8	0.2	11.0
CCc1cc2cc(C)cc(C)c2[nH]c1=S	0.4	i	-37.0	0.702	2.8	13.4	8.1	1.2	-1.0	4.7
CC(CNC(=O)c1ccc(C(C)(C)C)cc1)CN(C)C (centres undefined)	3.8	i	6.6	0.673	5.2	11.8	-0.4	-2.1	-0.4	3.3
COc1ccc(C2SCCN2C(=S)Nc2ccc(Cl)cc2)cc1 (centres undefined)	nt	nt	-22.1	0.694	0.7	nt	nt	nt	1.1	nt
Cc1csc(NC(=O)c2cccc(S(=O)(=O)N3CCN(C)CC3)c2)n1	4.1	i	2.8	0.692	4.7	-2.0	2.7	0.6	?	-0.5
CCCCNC(=O)CCn1nc(-c2ccccc2)ccc1=O	nt	nt	-4.6	0.685	1.7	nt	nt	nt	-0.9	-1.2
CCN(CC)CCNC(=O)c1cc(-c2ccc(Br)s2)nc2ccccc12	8.0	i	-5.2	0.621	-108.3	-5.7	-4.6	2.2	-0.7	10.1
CC(C)CCNC(=O)CN(Cc1ccccc1Cl)C(=O)CCC(=O)Nc1ccccn1	-1.4	i	13.0	0.702	0.7	-2.6	-3.3	-2.1	-0.1	9.3
CCOC(=O)c1ccc(COC(=O)c2cc(=O)[nH]c3ccccc23)o1	nt	nt	-9.3	0.748	-18.2	nt	nt	nt	-0.4	-1.5
O=S(=O)(c1ccc(Cl)c(NC(=S)Nc2cccc(O)c2)c1)N1CCOCC1	1.6	+	-11.6	0.697	-23.9	2.6	13.8	-2.2	0.5	1.1
CN(C(=O)Cn1nnc(-c2cccc(C(F)(F)F)c2)n1)C1CCCCC1	nt	nt	-3.7	0.759	2.0	nt	nt	nt	-0.4	-4.8
O=S(=O)(NCCSc1ccccc1)c1ccc2c(c1)OCCO2	nt	nt	4.4	0.658	0.5	nt	nt	nt	-2.0	-8.1
Cc1ccc2oc(C(=O)N3CCC(N4CCSCC4)CC3)c(C)c2c1	-4.2	i	4.5	0.662	2.7	2.5	7.8	6.1	0.6	-6.0
O=C(CN1CCN(S(=O)(=O)c2ccc(Cl)cc2)CC1)NCc1cccs1	-11.5	nt	-3.1	0.7	0.5	4.3	4.1	-1.9	-0.2	-7.7
Cc1ccc(-c2csc(NC(=O)c3cccc([N+](=O)[O-])c3C(=O)O)n2)cc1	-3.5	i	-4.3	0.649	3.9	9.5	8.4	-0.8	0.6	-4.4
CC(C)Cc1ccc(S(=O)(=O)NCC2CCCO2)cc1 (centres undefined)	-0.1	i	0.8	0.694	-2.5	0.8	16.2	4.1	0.9	nt
O=[N+]([O-])c1ccc(F)cc1F	nt	i	nt	nt	nt	8.2	7.4	0.4	0.9	0.9
CCOc1ccc(NC(=O)C(CC(=O)O)Cc2ccc(Br)cc2)cc1 (centres undefined)	-1.4	i	6.9	0.651	0.7	-4.2	-7.7	-0.2	0.2	0.2
COC(=O)[C@H](Cc1ccccc1)NC(=O)O[C@@H]1C(=O)c2cc(OC)ccc2O[C@H]1c1ccc(OC)c(Br)c1	nt	nt	-26.1	nt	-2.9	nt	nt	nt	-0.5	-3.0

New compounds follow:
SMILES	MLL AF4-AF9 inh	FGF22 binding	T cruzi repl	E coli growth	UCH37 DUB inh	Ecoli rRNA inh	Ecoli rRNA inh OD600	Ecoli rRNA inh RFP	A1 inh	Beta cell apopt
CCCCNC(=O)C1C2C=CC3(CN(Cc4ccc(C)cc4)C(=O)C13)O2 (centres undefined)	nt	nt	0.0	0.704	2.0	nt	nt	nt	-0.7	-6.1
c1ccc(-c2noc(CSc3nnc(Cc4cccs4)n3-c3ccccc3)n2)cc1	nt	nt	18.1	0.68	1.7	nt	nt	nt	2.5	-2.9
CC(=O)Nc1ccc(NC(=O)Cn2c(=O)n(-c3ccccc3)c(=O)c3oc4ccccc4c32)cc1	2.0	i	-1.0	0.683	0.6	0.9	1.0	-0.4	0.1	-6.4
COc1ccc(Cl)cc1C(=O)O/N=C(\N)c1ccccn1	3.5	i	0.8	0.691	3.7	2.9	13.8	-0.2	0.6	1.4
COc1cc2c(cc1OC)NC(=O)C2	-0.4	i	nt	0.621	0.5	6.0	12.7	-2.6	nt	nt
CCC(C)(C)NC(=O)CN(CCc1cccc(C)c1)C(=O)c1csnn1	-0.5	i	0.7	0.665	-0.7	-4.3	-5.0	5.0	-0.6	-0.6
C/C(=N\Nc1ccc([N+](=O)[O-])cc1)c1ccc(-n2nncc2C)cc1	1.4	i	1.9	nt	nt	-2.5	9.4	-2.4	-0.6	1.1
CCC(C)N1CCCCC1C(=O)Nc1c(C)cc(C)cc1C (centres undefined)	nt	nt	-2.5	0.707	4.3	nt	nt	nt	-0.7	-8.8
CC(=O)/C(N=Nc1nc2c([nH]1)c(=O)n(C)c(=O)n2C)=C(\C)O	2.8	nt	9.0	0.639	1.1	1.4	19.5	8.9	-0.2	-3.7
